SARS PLpro yeast: blocks SARS-CoV papain-like protease in a yeast assay. S. cerevisiae expressing SARS-CoV PLpro, growth rescue; control for the full effect not named in the record. Potency, µM (highest dose often 32.9 µM), inactives show at the top dose activity, positive = growth rescue. actives 0.19% (n = 330,000); active means well fitted rising curve with a large enough effect; inconclusive means small, poorly fitted or top-dose-only effect; inactive means no such curve, though single readings can be large or run the other way; further: 0% is about no effect; nearly all actives have a fitted effect of over 55% in size; growth read by luminescence after 48 h
Marburg entry inh: Marburg virus entry inhibition. Marburg virus pseudotyped entry inhibition, cell reporter; control for the full effect not named in the record; about a third of the inactives were read at about 46 µM. actives 1.8% (n = 300,000). Potency, µM (series often up to 37.8 µM), without a hit: at the top dose activity change, negative = inhibition, usual class: inhibitors; active = well fitted inhibition curve with a large enough effect; inconclusive = small, poorly fitted or top-dose-only effect, or effect the other way; inactive = flat fitted curve, though single readings scatter; tested in HEK293 cells; about a fifth of its hits are not listed in these tables; further: on the % scale 0 is the no-effect control and ±100 the full control effect; luciferase read-out
Lassa entry inh: blocks Lassa virus binding to or entry into cells; Lassa virus pseudotype entry inhibition, cell reporter; control for the full effect not named in the record; Potency, µM (top dose mostly 37.9 µM), for the others: at the top dose activity change, negative = inhibition, usual class: inhibitors; actives 1.2% (n = 300,000); AID 540256; active means well fitted inhibition curve with a large enough effect; inconclusive means small, poorly fitted or top-dose-only effect, or effect the other way; inactive means flat fitted curve, though single readings scatter; tested in HEK293 cells; further: on the % scale 0 is the no-effect control and ±100 the full control effect; nearly all actives have a fitted effect of over 50% in size; luciferase read-out
StopGo reporter: FMDV 2A StopGo reporter, luciferase signal; actives 1.2% (n = 410,000); Potency, µM (top dose mostly 57.9 µM), for the others: at the top dose signal change, negative = less light; human cells with a luciferase reporter of 2A StopGo recoding; control for the full effect not named in the record; AID 1159524; active = well fitted falling curve with a large enough effect; inconclusive = small, poorly fitted or top-dose-only effect; inactive = no such curve, though single readings can be large or run the other way; tested in HEK293T cells; further: on the % scale 0 is the no-effect control and ±100 the full control effect; nearly all actives have a fitted effect of over 45% in size; luciferase light after 4 h
RE007 growth inh: less growth of the S. pombe RE007 Vpr strain; actives 0.21% (n = 360,000); S. pombe RE007 Vpr strain, BacTiter-Glo ATP luminescence, 24 h; control for the full effect not named in the record; Potency, µM (top dose mostly 92.2 µM), for inactives: at the highest dose activity change, negative = less growth; active = well fitted falling curve with a large enough effect; inconclusive = small, poorly fitted or top-dose-only effect; inactive = no such curve, though single readings can be large or run the other way;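 further: on the % scale 0 is the no-effect control and ±100 the full control effect; nearly all actives have a fitted effect of over 50% in size; the assay follows cell death caused by Vpr and the record does not say whether a fall means rescue or toxicity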
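Fission yeast RE007 carrying one integrated HIV-1 vpr copy, seeded at OD 0.01 in PMG+AL medium with 23 nL pinned compound. Grown 24 h at 30 degrees; viability read by BacTiter-Glo luminescence after 5 min.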
Cruzain noTriton: inhibitors of Trypanosoma cruzi cruzain without detergent. P25779. purified cruzain, Z-FR-AMC fluorescence, no detergent. Potency, µM, for inactives: max response, negative = inhibition, most hits filed as inhibitors. actives 2.3% (n = 200,000). AID 1476;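 further: plate controls were enzyme without inhibitor for no effect and buffer without enzyme for full effect; nearly all actives have a fitted effect of over 40% in size; top concentration of the series not given in the record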
Target sequence (P25779 123-467 limits assumed): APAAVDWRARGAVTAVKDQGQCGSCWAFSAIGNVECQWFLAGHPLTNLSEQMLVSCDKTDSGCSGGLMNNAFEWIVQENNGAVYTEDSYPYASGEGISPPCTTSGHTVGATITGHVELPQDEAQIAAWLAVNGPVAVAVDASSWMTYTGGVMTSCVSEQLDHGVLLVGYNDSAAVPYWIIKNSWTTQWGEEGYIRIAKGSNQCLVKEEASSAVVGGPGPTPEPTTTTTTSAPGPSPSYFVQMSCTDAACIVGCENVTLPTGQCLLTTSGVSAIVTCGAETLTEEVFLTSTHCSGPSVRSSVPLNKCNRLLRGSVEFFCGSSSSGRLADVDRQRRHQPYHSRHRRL
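Detergent-free condition (0.00005% Triton X-100) in acetate buffer pH 5.5 with DTT. 1.5 nM enzyme and compound were pre-mixed 15 min, then 2 uM Z-FR-AMC substrate added; reaction progress from fluorescence change between first and third reads (60 s).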
NS1 function inh: blocks influenza NS1 protein function | actives 0.4% (n = 270,000) | Potency, µM (top dose mostly 46.1 µM), for the others: at the top dose activity, positive = more growth | S. cerevisiae slowed by influenza A NS1, growth recovery by OD600; active means well fitted rising curve with a large enough effect; inconclusive means small, poorly fitted or top-dose-only effect; inactive means no such curve, though single readings can be large or run the other way; further: nearly all actives have a fitted effect of over 50% in size
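Compounds were scored for reversing the slow growth caused by influenza A NS1 in S. cerevisiae, measured by optical density at 600 nm. Assay medium contained 2% galactose at pH 6.0; NS1-free yeast of the same strain were the positive control.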
Cruzain Triton: blocks cruzain activity in presence of Triton detergent; P25779; Potency, µM, inactives show max response, negative = inhibition, most hits filed as inhibitors; purified cruzain, Z-FR-AMC fluorescence, 0.01% Triton; actives 0.43% (n = 200,000);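 further: plate controls were neutral wells for no effect and buffer without enzyme for full effect; nearly all actives have a fitted effect of over 40% in size; top concentration of the series not given in the record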
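15 min RT preincubation of 1.5 nM cruzain with compound, then 2 uM Z-FR-AMC added; kinetic AMC fluorescence, 60 s delta. Triton X-100 0.01%, pH 5.5.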
The depositor's hits bear a star; u = inconclusive; x = no result given; & = joins results of further samples; [ ] = remark or other dose. Unless noted, the call rests on the fitted dose curve; in most records, active means well fitted curve in the direction sought with a large enough effect; inconclusive means small, poorly fitted or top-dose-only effect, or another doubt; inactive means no such curve, though single readings can be large; an effect the other way counts as inactive or inconclusive. Potency means the concentration at half of the fitted maximal effect.

SMILES	SARS PLpro yeast	Marburg entry inh	Lassa entry inh	StopGo reporter	RE007 growth inh	Cruzain noTriton	NS1 function inh	Cruzain Triton
O=C(Cc1ccccc1)NCC(=O)OCC(=O)c1ccc(OC(=O)c2ccccc2)cc1	-6.0%	-18.7%	-0.8%	29.4%	6.7%	u	15.4%	4.4%
COc1ccc(OC)c(-c2noc(CSc3nnc(Cc4ccccc4)n3-c3cccc(C)c3)n2)c1	x	-8.6%[46.1 µM]	u	0.0%	x	28.4%	x	-8.1%
O=C(c1cc2ccccc2o1)N1CCN(S(=O)(=O)c2cccs2)CC1	8.1%	-11.8%[46.1 µM]	u	u	9.6%	-25.1%	10µM*	-1.8%
O=C(Cn1cnc2c(nnn2Cc2ccc(F)cc2)c1=O)Nc1cccc(F)c1	0.2%	x	x	-6.5%	-1.3%	x	5.9%	x
COc1cccc(NC(=O)CN(C)C(=O)c2ccc(N3CCOCC3)c([N+](=O)[O-])c2)c1	-4.7%	0.8%[46.1 µM]	-5.4%	1.2%	-1.8%	x	x	x
O=C(Nc1ccc(N2CCOCC2)nc1)c1ccc(Cl)cc1	1.5%	-0.1%	1.6%	-22.0%	2.5%	0.7%	-6.8%	-2.1%
COc1ccc(NCC(=O)N/N=C/c2ccc3c(c2)OCCO3)cc1	2.2%	6.6%	u	18.9%	-11.9%	-19.2%	12.6%	-5.5%
O=S(=O)(c1cccc(Cl)c1)N1CCC(c2nc3ccccc3[nH]2)CC1	-0.8%	-6.0%[46.1 µM]	x	-19.2%	-1.7%	x	-3.9%	x
CC(C)(C)c1cc(C(=O)NNC(=O)c2ccc(C(F)(F)F)cc2)no1	-1.1%	1.3%	x	-24.4%	-13.0%	x	-3.9%	x
CCC(C(=O)Nc1ccc(F)cc1F)n1nc(-c2ccccc2)c2c(c1=O)CCCC2 (configuration not stated)	x	-24.2%[46.1 µM]	-12.1%[46.1 µM]	1.5%	x	-10.1%	x	-4.9%

Structures listed so far containing a Cl atom (2):
SMILES	SARS PLpro yeast	Marburg entry inh	Lassa entry inh	StopGo reporter	RE007 growth inh	Cruzain noTriton	NS1 function inh	Cruzain Triton
O=C(Nc1ccc(N2CCOCC2)nc1)c1ccc(Cl)cc1	1.5%	-0.1%	1.6%	-22.0%	2.5%	0.7%	-6.8%	-2.1%
O=S(=O)(c1cccc(Cl)c1)N1CCC(c2nc3ccccc3[nH]2)CC1	-0.8%	-6.0%[46.1 µM]	x	-19.2%	-1.7%	x	-3.9%	x

New compounds follow
SMILES	SARS PLpro yeast	Marburg entry inh	Lassa entry inh	StopGo reporter	RE007 growth inh	Cruzain noTriton	NS1 function inh	Cruzain Triton
COc1ccc2c(c1)c(=O)c(C(=O)c1ccc(Cl)cc1)cn2CC(=O)Nc1ccc2c(c1)OCCO2	x	0.8%[46.1 µM]	-1.7%[46.1 µM]	u	x	-2.3%	x	2.0%
CCOC(=O)c1cnc2c(N=Nc3cccc(Cl)c3)c(N)nn2c1N	4.9%	-0.9%	x	x	x	u	0.7%	-6.4%
COc1ccc(Cl)cc1NC(=O)CN1CCCCCC1	-0.2%	-28.4%[46.1 µM]	23.5%	-18.2%	21.5%	x	x	x
Cc1ccc(C)c(NC(=O)/C(C#N)=C/c2ccc(C(C)C)cc2)c1	x	-4.4%[46.1 µM]	-19.1%[46.1 µM]	-36.2%	x	-1.5%	x	-2.2%
Cc1ccccc1C(=O)Nc1ccc2c(c1)C(=O)NC2=O	7.2%	x	x	4.3%	-11.2%	x	14.5%	x
Cc1ccc(-c2nnc(SCC(=O)N3CC(C)CC(C)C3)o2)cc1C (configuration not stated)	-18.7%	x	x	-2.2%	-3.0%	-5.8%	-86.1%	-7.5%
CCNc1nc(C(=O)O)nc(N2CCOCC2)n1	4.1%	1.2%	10.1%	7.8%	7.5%	x	x	x
O=C(NCc1ccc(F)cc1)c1cc2sccc2n1Cc1ccc(F)cc1	-8.6%	x	x	x	x	-27.7%	5.7%	-6.7%
COC(=O)COc1cccc2c(=O)n(CC(=O)N3CCC(C)CC3)ccc12	0.3%	12.3%	8.2%	-6.6%	-9.9%	x	0.3%	x
Cc1ccc2cc(NC(=O)CC(CC(=O)O)c3ccccc3)ccc2n1 (configuration not stated)	0.0%	x	x	-3.2%	0.4%	x	1.0%	x
COc1ccc(N2CCN(C(=O)CCC(=O)N3CC(C)Oc4ccccc43)CC2)cc1 (configuration not stated)	4.0%	x	x	-29.1%	-7.0%	x	-7.1%	x
COc1cc(C2Nc3ccccc3-c3nnc(SCc4ccc(C)cc4)nc3O2)cc(OC)c1O (configuration not stated)	x	u	-6.3%[46.1 µM]	22.4µM*	x	-5.4%	x	-4.9%
Cc1nn(C2CCS(=O)(=O)C2)c(Cl)c1/C=C/C(=O)OCC(=O)c1cc(C)n(-c2ccc(F)cc2)c1C (configuration not stated)	22.8%	u	u	u	-20.7%	-21.6%	u	-0.1%
COC(=O)CCC(=O)OC1(C)C(=O)C=C2C=C(C3CC3)N(Cc3ccc(OC)cc3)C=C2C1=O (configuration not stated)	1.8%	9.3%&9.3%[14.2 µM]	x	-14.7%	10.0%	x	9.0%	x
COC(=O)C1=C(N)OC(C)=C(C(C)=O)C12C(=O)N(C)c1ccccc12 (configuration not stated)	1.1%	7.4%	2.0%	-2.0%	-4.9%	-26.6%	-0.7%	-1.1%
COc1ccccc1C1CCN(Cc2ccc(C)cc2)CC1	1.8%	u	-21.7%	0.0%	-6.5%	x	-5.0%	x
Cc1cc(-c2nnc(SCC(=O)Nc3ccc(F)cc3F)n2N)n[nH]1	2.2%	2.8%[46.1 µM]	12.9%[46.1 µM]	8.9%	4.2%	x	1.3%	x
CC(=O)Nc1ccc(OCC(O)CN2C(C)CCCC2C)cc1 (configuration not stated)	9.9%	8.1%	6.6%	-15.0%	11.0%	-0.1%	4.4%	0.0%
COc1ccccc1NC(=O)CSC1=Nc2ccccc2C2=NC(CCC(=O)NCc3cccs3)C(=O)N12 (configuration not stated)	x	x	u	u	x	-6.3%	x	2.7%
COc1ccccc1NC(=O)c1c(NC(=O)Cc2ccccc2)sc2c1CCC(C(C)(C)C)C2 (configuration not stated)	x	2.0%[46.1 µM]	17.8%[46.1 µM]	-12.2%	x	7.2%	x	-1.6%
Cc1ccc(Nc2nc3ccc(Cl)cc3n3cnnc23)cc1F	0.4%	u	2.9%	-18.3%	10.4%	x	-3.7%	x
Cc1cccc(N2C(=O)c3cccnc3C2=O)c1	-13.0%	12.8%	20.2%	12.8%	1.0%	-4.3%	2.3%	3.3%
COc1ccc(CN=C2NN=C(c3cccc(OC)c3)CS2)cc1	-1.3%	u	-10.7%[46.1 µM]	13.5%	-5.7%	x	x	x
O=[N+]([O-])c1ccc(/C=N/n2c(COc3ccccc3)n[nH]c2=S)cc1	0.9%	3.1%	u	-19.4%	6.6%	0.1%	-0.2%	-6.1%
Cn1cc(CNCC2CCCO2)c(-c2ccc(Oc3ccccc3)cc2)n1 (configuration not stated)	-1.8%	u	0.1%[46.1 µM]	23.2%	4.1%	x	2.7%	x
CC(C)C[C@H](NC(=O)N1CC(=O)Nc2ccccc21)C(=O)N[C@@H](Cc1ccccc1)C(=O)O	-10.3%	x	x	-9.5%	-3.3%	x	-9.9%	x
CC1=CSC2=NS(=O)(=O)CCN12	0.3%	x	x	-24.2%	-2.5%	x	3.7%	x
CCOc1ccc(/C=N/NC(=O)Cc2ccccc2)cc1CN1CC2CC(C1)c1cccc(=O)n1C2 (configuration not stated)	-0.2%	-6.4%	x	-3.0%	0.6%	x	x	x
COc1cc(C(=O)OCc2cc(=O)n3nc(C4CCCCC4)sc3n2)cc(OC)c1OC	x	x	17.5%[46.1 µM]	u	x	-5.3%	x	2.5%
COc1ccc(C(C)=O)cc1CN1C(=O)NC2(CCCCCC2)C1=O	1.4%	-9.0%	-5.2%	0.0%	18.5%[3.69 µM]	-5.5%	-1.7%	-0.6%
Cc1ccc(C(=O)O)cc1N1C(=O)c2cccc3c([N+](=O)[O-])ccc(c23)C1=O	1.3%	x	x	u	2.2%	x	7.5%	x
Cc1cc(N2CCN(S(=O)(=O)c3ccc(Cl)c(Cl)c3)CC2)c2ccccc2n1	-0.7%	x	x	u	0.8%	x	0.2%	x
CC(C)OCCCNC(=O)C1CCC(CNS(=O)(=O)c2cccc3nsnc23)CC1 (configuration not stated)	8.2%	x	x	-24.5%	-9.3%	x	-2.9%	x
Cc1nc(SCc2ccc([N+](=O)[O-])cc2)nc2ccccc12	1.4%	-17.3%	3.4%	-3.8%	-4.7%	1.5%	8.9%	-2.8%
Cc1cc(OCCn2ccnc2)cc(C(C)C)c1	-20.5%	-4.7%	-6.4%	-24.2%	-15.5%	-3.5%	-12.5%	-0.5%
CCCOc1ccc(-c2nc(N3CCN(C)CC3)c3ccccc3n2)cc1	-3.1%	x	x	19.9%	-10.8%	x	-6.2%	x
COc1cc(C2NC(=O)NC(C)=C2C(C)=O)ccc1O (configuration not stated)	0.3%	14.7%	3.7%	-3.0%	-5.7%	x	10.2%	x
Cc1[nH]ccc(=O)c1Cc1c(Cl)cccc1Cl	-0.2%	u	-13.3%[46.1 µM]	14.7%	8.3%	x	-1.0%	x
CC(C)C(=O)NNC(=O)c1csc(CS(=O)(=O)c2ccc(Cl)cc2)n1	-0.7%	u	-13.8%	4.3%	-4.3%	x	1.4%	x
Cc1cc(Br)ccc1NC(=O)CN(C)Cc1cccs1	0.2%	-18.5%[46.1 µM]	4.2%[46.1 µM]	21.5%	-18.9%	x	-21.8%	x
CCCn1cnc2c(SCCc3ccccc3)nc(N)nc21	x	u	-15.5%	0.0%	0.3%	x	x	x

Copied from the list:
For Lassa entry inh, COc1ccccc1C1CCN(Cc2ccc(C)cc2)CC1 has the entry -21.7%
For Lassa entry inh, Cc1nc(SCc2ccc([N+](=O)[O-])cc2)nc2ccccc12 has the entry 3.4%
For RE007 growth inh, CC(C)C(=O)NNC(=O)c1csc(CS(=O)(=O)c2ccc(Cl)cc2)n1 has the entry -4.3%
For StopGo reporter, CCC(C(=O)Nc1ccc(F)cc1F)n1nc(-c2ccccc2)c2c(c1=O)CCCC2 (configuration not stated) has the entry 1.5%
For StopGo reporter, CC(C)(C)c1cc(C(=O)NNC(=O)c2ccc(C(F)(F)F)cc2)no1 has the entry -24.4%
